RanGTP-Impb inh = inhibitors of RanGTP-importin-beta interaction, primary screen, biochemical, FRET, CFP-Ran, YFP-importin-beta, homogeneous | Ran GTPase (GTP-bound) - importin-beta complex | cell-free CFP-Ran/YFP-importin-beta FRET ratio | inhibition, % (test concentration not listed) | 300,000 tested, 1.1% active;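 active = most replicates above 15%; inconclusive = exactly half above 15%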;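 note: 0% = DMSO wells and 100% = Ran loaded with GDP instead of GTP; wells of about 40 µL received 100 nL stock; the first replicate is given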
T cruzi repl = inhibitors of intracellular T. cruzi growth, primary screen, luminescence, NIH3T3 host cells | T. cruzi beta-gal in NIH3T3, 90 h | inhibition, % (test concentration not listed) | 300,000 tested, 1.4% active | AID 1885, 2009;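 active = mean inhibition across valid replicates above about 55%, limit read from the data; inconclusive = mean below that limit but half or more replicates reach it; inactive = mean below it, under half of replicates reach it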;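 note: signal also drops with host cell toxicity which is not excluded here; 0% = plate median of DMSO wells and 100% = zero luminescence signal; higher percent means less beta-gal luminescence so fewer parasites; stock transfer was 50 nL into about 50 µL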
Beta apoptosis = inhibitors of cytokine-induced beta cell apoptosis, primary screen, luminescence | 300,000 tested, 0.8% active | protection from apoptosis, % (concentration not given with the values) | INS-1E cytokine-induced death, ATP luminescence, 48 h; percent of positive-control rescue, neutral wells zero | AID 435005, 2010;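 active = all replicates at 75% or more, or half of them and the mean; inconclusive = half reach 75% but not the mean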;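 note: 0% = cytokine-treated negative control wells and 100% = positive control rescue; higher means more ATP so stronger rescue from cytokine killing; wells of about 40 µL received 100 nL stock; the first replicate is given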
UCH37 DUB inh = inhibitors of human UCH37 deubiquitinase, primary screen, biochemical, Ub-AMC cleavage, fluorescence | Ubiquitin carboxyl-terminal hydrolase isozyme L5 (Homo sapiens), Q9Y5K5 | purified proteasome/UCH37 | inhibition, % (no concentration beside the values) | 330,000 tested, 0.33% active | AID 588478, 2011;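 active = mean of two replicates above 20%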;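 note: 0% = compound-free wells with enzyme and 100% = wells lacking proteasome; stock transfer was 100 nL into about 20 µL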
Target sequence (Q9Y5K5 whole entry, looked up): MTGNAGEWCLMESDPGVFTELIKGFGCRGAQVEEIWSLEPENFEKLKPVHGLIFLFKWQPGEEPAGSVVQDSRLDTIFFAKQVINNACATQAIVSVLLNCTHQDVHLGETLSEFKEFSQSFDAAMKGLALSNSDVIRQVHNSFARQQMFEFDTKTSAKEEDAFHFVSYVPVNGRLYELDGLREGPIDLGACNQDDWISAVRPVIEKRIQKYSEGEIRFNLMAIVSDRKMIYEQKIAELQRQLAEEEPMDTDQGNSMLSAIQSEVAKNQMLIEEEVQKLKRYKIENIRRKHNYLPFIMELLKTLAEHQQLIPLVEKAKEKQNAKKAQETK
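Schedule: 30 min plus 25 min, room temperature / Material: human UCH37 within purified proteasomes / Technique: AMC fluorescence intensity at 355/460 nm / Buffer or medium: pH 7.4 Tris-HCl (50 mM) with ovalbumin, ATP-MgCl2, DTT / Controls: wells without proteasome as full block, compound-free enzyme plus substrate as uninhibited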
Calb FLC = C. albicans growth inhibition with fluconazole, primary screen, CaCi-2 strain, Alamar Blue fluorescence. 300,000 tested, 0.57% active. growth inhibition, % (concentration not given with the values). C. albicans CaCi-2 (fluconazole-resistant clinical isolate) + fluconazole, 48 h;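 active = most replicates above 75%; inconclusive = exactly half above 75%; inactive = most below 75%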;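 note: all wells also contain fluconazole at 8 µg/ml as a sub-toxic cotreatment; 0% = median of DMSO wells and 100% = median of geldanamycin control wells; wells of about 8 µL received 7.5 nL stock; the first replicate is given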
Bfl-1 A1 inh = caspase 3/7 activation in MEF A1-2A-BIM cells, primary screen, A1 inhibitor project, cell-based, luminescence, HTS; caspase activation, % (test concentration not listed); 330,000 tested, 0.066% active; Caspase-Glo 3/7 luminescence, 3 h; percent of clofoctol response, vehicle zero;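 active = over half of replicate activation scores above 10%, or exactly half above 10 with the replicate mean above 10; inconclusive = replicate mean below 10 yet half the replicates above 10; inactive = over half of replicates below 10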;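 note: wells of about 30 µL received 50 nL stock; many hits fall short of the cut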
Beta2AR agonist = beta2AR agonists driving receptor internalization, primary screen, cell-based, FAP fluorogen, flow cytometry. Beta-2 adrenergic receptor (Homo sapiens), P07550. Am2.2-beta2AR cells; reference of the scale not given here. response, % (test concentration not listed). 340,000 tested, 0.43% active. AID 504454, 2011;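 active = response above a set limit, near 3 SD of response in nonfluorescent compounds, cut at about 42% in these data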;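 note: stock transfer was 100 nL into about 11 µL; a reference agonist was the positive control; negative values mostly stem from fluorescent compounds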
Target sequence (P07550 whole entry, looked up): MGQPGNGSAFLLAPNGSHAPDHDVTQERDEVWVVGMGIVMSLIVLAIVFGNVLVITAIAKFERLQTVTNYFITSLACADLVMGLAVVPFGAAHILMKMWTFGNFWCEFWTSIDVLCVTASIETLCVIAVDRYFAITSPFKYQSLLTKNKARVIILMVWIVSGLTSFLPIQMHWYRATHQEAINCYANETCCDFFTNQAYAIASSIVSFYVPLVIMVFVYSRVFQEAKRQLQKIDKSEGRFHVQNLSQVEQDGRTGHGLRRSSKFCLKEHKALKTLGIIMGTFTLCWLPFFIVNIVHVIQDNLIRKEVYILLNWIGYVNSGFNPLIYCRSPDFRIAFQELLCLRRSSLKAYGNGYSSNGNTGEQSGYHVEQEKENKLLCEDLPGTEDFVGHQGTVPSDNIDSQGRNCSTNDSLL
LANA-H2B inh = blockers of LANA interaction with H2A/H2B – biochemical, FP readout, HTS, primary screen; inhibition, % (no concentration beside the values); Protein LANA1 (Human herpesvirus 8 type P (isolate GK18)), Q9QR71; AID 2629, 2010; cell-free LANA-H2A/H2B peptide, fluorescence polarization; 320,000 tested, 0.6% active; in the data active = inhibition mostly above about 10%, no sharp cut-off; inactive = mostly below about 6.7%;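 note: stock transfer was 7.5 nL into about 10 µL; 0% = median of vehicle wells and 100% = median of positive control wells; one replicate is shown; the record names a cut of 25% in any replicate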
Active calls of the source: *; u = inconclusive; x = no result given. Hits appear at their usual frequency; about 4.3% have a hit in one of these screens.

SMILES	RanGTP-Impb inh	T cruzi repl	Beta apoptosis	UCH37 DUB inh	Calb FLC	Bfl-1 A1 inh	Beta2AR agonist	LANA-H2B inh
CCOc1ccc(N2CC(C(=O)NCc3ccccc3)CC2=O)cc1 (configuration not stated)	1.8	-10	1	5.2	-13	-0.6	-6	3.3
COc1ccc(C(=O)NC(=S)Nc2ccccc2N2CCOCC2)cc1[N+](=O)[O-]	1.2	16	-8	3.4	0	0.4	-5	0.7
N#Cc1ccc(COC(=O)c2ccc(N3CCCC3)c([N+](=O)[O-])c2)cc1	0.4	12	-1	7.2	1	0.8	-18	0.5
O=C(O)C1CCCNC1 (configuration not stated)	0.6	-16	x	5.8	-8	0.2	x	-4.2
O=C(O)c1ccccc1NC(=S)NC(NC(=O)c1ccccc1[N+](=O)[O-])C(Cl)(Cl)Cl (configuration not stated)	-0.2	-8	-4	-0.6	-1	-0.7	2	-1.0
CCOC(=O)N1CCC(N(CCOC)C(=S)Nc2cccc(SC)c2)CC1	0.4	6	0	0.7	13	1.1	-3	1.0
CCN1CCN(C(=O)CSc2cc(=O)n(CC)c3ccccc23)CC1	37*	2	-2	-1.7	-16	2.1	-5	4.5
CC(=O)OCCCCON1C(=O)c2ccccc2C1=O	0.4	-9	-5	5.5	-4	0.7	-4	4.0
CNC(=O)/C(C#N)=C/c1c(N2CCN(c3cccc(Cl)c3)CC2)nc2c(C)cccn2c1=O	u	9	-1	-82	34	1.4	13	-3.7
COc1ccc(NS(=O)(=O)c2cccc(C(=O)NCC(c3ccccc3)N(C)C)c2)cc1 (configuration not stated)	u	-5	-6	1.3	-1	-0.2	-3	5.8
C=CCn1c(=O)c(C(=O)NCCN(CC)CC)c(O)c2ccccc21	2.8	x	-9	2.7	23	-0.4	4	-5.2
Fc1ccccc1NC(=S)N/N=C/c1ccccc1Br	0.5	-3	10	x	-2	-1.3	-2	-2.9
O=C(NC(=S)NC1CCS(=O)(=O)C1)c1cccc([N+](=O)[O-])c1 (configuration not stated)	4.1	-11	4	5.8	2	0.5	-2	1.4
CN(CC(=O)NCC1CCCCC1)S(=O)(=O)c1ccc(Cl)cc1	1.4	7	6	2.0	0	-0.1	-7	1.7
CCN(CC)S(=O)(=O)c1ccc(C(=O)Nc2cc3oc4ccccc4c3cc2OC)cc1	-3.5	23	6	-66	-14	-0.3	-3	-0.1
COCC1CCCN(C(=O)c2ccc3oc(C(C)C)nc3c2)C1 (configuration not stated)	u	-15	-3	5.8	4	-0.4	3	8.2
O=C(O)CCCN1C(=O)/C(=C\c2ccc(-c3nc4ccccc4s3)o2)SC1=S	-10	3	-12	39*	-3	0.0	53*	6.2
Cc1ccc(C)c(N2N=C(C(=O)N(CC(C)C)c3c(N)n(Cc4ccccc4)c(=O)[nH]c3=O)CCC2=O)c1	2.6	3	-4	-5.0	-3	0.1	3	0.8
CN(C)c1ccnc(Oc2ccc(F)cc2)c1C#N	-5.9	-7	x	5.0	4	-0.1	-5	-5.5
C/C(CC(=O)Nc1ccccc1C)=N\NC(=O)Cc1csc(N)n1	0.1	-2	-5	x	-3	1.1	4	1.0
Cc1c(C(=O)OC/C(O)=C(\C#N)c2nc3ccccc3[nH]2)oc2ccccc12	0.3	-2	-12	2.0	-4	0.1	13	8.3
CCOC(=O)c1c(NC(=O)COc2ccccc2F)sc2c1CC(C)(C)NC2(C)C	-3.7	47	x	4.9	8	0.4	-3	2.1
CCCCn1c(N)c(N(Cc2ccccc2OC)C(=O)c2sccc2C)c(=O)[nH]c1=O	5.2	6	-6	0.0	6	0.1	2	-0.4
Cn1c(=O)c2ncn(CC(=O)Nc3ccc4c5c(cccc35)CC4)c2n(C)c1=O	2.3	-4	-1	2.8	7	-1.3	-73	1.6
CCNS(=O)(=O)c1ccc(Br)c(C(=O)OC(C)C(=O)NCC2CCCCC2)c1 (configuration not stated)	x	x	1	0.8	x	2.1	-3	-6.6

Other records
SMILES	RanGTP-Impb inh	T cruzi repl	Beta apoptosis	UCH37 DUB inh	Calb FLC	Bfl-1 A1 inh	Beta2AR agonist	LANA-H2B inh
O=C(NCCN=C1NS(=O)(=O)c2ccccc21)c1ccco1	0.8	-11	-6	0.9	6	-0.1	-6	0.7
CC(=O)C1=C(O)C(=O)N(Cc2ccco2)C1c1ccc(F)cc1 (configuration not stated)	5.7	-10	-6	2.8	-1	0.6	11	2.0
O=C(c1ccccc1)N1CCN(C(=O)C2CC2)CC1	3.1	-3	0	-2.8	1	0.2	-8	-3.9
CS(=O)(=O)c1ccc(Cl)c(NC(=O)C2CCCN(C(=O)c3ccc(Cl)cc3)C2)c1 (configuration not stated)	1.1	11	2	0.1	0	-0.4	15	-1.4
CCCCNC(=O)C1CCN(Cc2ccc(OCc3ccccc3)cc2)CC1	0.4	23	-2	-0.1	-19	-2.6	7	-5.0
O=c1[nH]cc(C(F)(F)F)cc1NS(=O)(=O)c1ccc([N+](=O)[O-])cc1	4.8	-8	0	2.8	-5	0.4	0	-12
CC(=O)OC1c2ccccc2C(=O)N1Cc1ccccc1 (configuration not stated)	-1.6	-4	1	2.7	-6	0.0	5	7.4
CN(c1ccc(F)cc1)S(=O)(=O)c1ccc(Cl)c(C(=O)Nc2ccc3c(c2)CCC3)c1	2.0	13	6	2.3	-9	0.0	-2	3.1
Cc1nc(SCC(=O)Nc2c(C)n(C)n(-c3ccccc3)c2=O)n[nH]1	-0.6	-7	3	-0.8	-1	0.5	7	-1.8
COc1cc2c(cc1OC)CN(c1nc(CN3CCCCC3)nc3sc4c(c13)CCCC4)CC2	4.3	49	32	-3.3	14	0.9	-6	-1.0
O=C(Nc1cnc2ccccc2c1)N1CCCCC1	2.9	-4	-1	-0.7	x	0.7	0	2.7
CCOc1ccc(-c2cc(CCCC(=O)NCCc3ccc(OC)c(OC)c3OC)no2)cc1	0.7	30	-3	2.0	-15	-0.4	-24	5.1
COc1ccc(-c2csc(NC(=O)CSc3nnnn3C)n2)cc1OC	1.0	-2	1	2.1	1	0.4	3	-3.5
COc1cc(/C=C2\SC(=S)N(c3cccnc3)C2=O)ccc1O	-2.1	-4	-5	x	-8	-1.6	10	6.7
COC(=O)C1=C(CN2CCCc3ccccc32)NC(=O)NC1c1ccc(F)cc1 (configuration not stated)	2.1	4	-4	-1.2	0	0.5	6	-8.9
CCc1ccc(NC(=O)Nc2ccncc2)cc1	-0.6	44	-1	5.4	-7	-0.1	1	2.7
COc1ccc(NC(=O)C2CCCN(c3c4c(nc5ncnn35)CCC4)C2)cc1OC (configuration not stated)	0.9	9	2	4.8	-6	0.1	-7	1.3
O=S(=O)(/N=C/c1ccccc1O)c1cccs1	4.0	-17	x	x	-1	-0.7	3	1.4
COCCn1c(=O)[nH]c2cc(C(=O)Nc3nnc(C)s3)ccc21	-2.0	-6	1	-2.3	0	-0.4	3	-2.3
COC(=O)CSc1nnc([C@H](Cc2ccccc2)NC(=O)OC(C)(C)C)o1	-1.0	-4	-8	5.5	-5	0.2	5	-8.6
COc1ccc(C(=O)COC(=O)C2CC3CCCC(C2)C3=O)cc1Br (configuration not stated)	0.0	-4	-4	3.2	-19	-0.4	-1	-1.2
CCn1nnnc1SCC(=O)N1c2ccccc2Sc2ccccc21	-4.3	20	2	3.4	7	0.6	-3	1.2
CCCCC(=O)NC(NC(=S)N1CCOCC1)C(Cl)(Cl)Cl (configuration not stated)	3.6	2	-5	3.3	8	1.3	-11	4.9
CCN1CCN(C(=S)Nc2ccc(C(C)=O)cc2)CC1	-0.6	-1	-4	5.2	-15	-0.1	-9	7.3
Cc1cc(N/N=C/c2ccc(Cl)cc2Cl)nc(NCc2ccccc2)n1	1.9	46	x	x	21	-1.3	6	-5.5

(more compounds)
SMILES	RanGTP-Impb inh	T cruzi repl	Beta apoptosis	UCH37 DUB inh	Calb FLC	Bfl-1 A1 inh	Beta2AR agonist	LANA-H2B inh
CCCC(C(=O)NC(C)(C)CC)N(CC1CCCO1)C(=O)CNS(=O)(=O)c1ccc(F)cc1 (configuration not stated)	-0.3	1	3	0.8	-21	0.7	5	2.5
CCCn1nnnc1NC(=O)c1cc(Br)ccc1OC	1.0	-14	2	0.1	8	0.8	-8	-0.4
Cc1ccc(NC(=O)C2CC(=O)Nc3nncn32)cc1 (configuration not stated)	x	-16	-12	-0.1	x	-0.8	-2	11
Cc1ccc(NS(C)(=O)=O)c(C(=O)c2ccccc2)c1	-1.8	6	-1	-0.8	-6	-0.1	-7	-0.3
CC(C)NC(=O)N(C)C[C@H]1Oc2ccc(NC(=O)C3CC3)cc2C(=O)N([C@H](C)CO)C[C@@H]1C	x	x	1	4.6	x	0.7	-3	2.6
Oc1ccccc1/C=N/NC(=S)NC1CC2CCC1C2 (configuration not stated)	-4.6	-20	23	x	-2	-0.6	-23	-2.6
O=C(NCc1cccnc1)NC1CC(=O)N(c2ccc3c(c2)OCCO3)C1 (configuration not stated)	3.0	-5	-3	0.3	-3	0.1	-4	-6.9
COc1cc2[nH]c(=S)n(NC(=O)c3ccccc3)c(=O)c2cc1OC	0.2	0	x	7.8	-2	x	7	x
COc1ccc(S(=O)(=O)Nc2ccc3c(c2)OCCO3)cc1Cl	5.1	11	6	0.6	1	0.9	-3	0.6
O=C(Cn1nnc2ccccc21)N/N=C\c1cccs1	22*	2	1	x	2	1.0	3	3.2
Cc1cccc(/C=N/NC(=O)NC2CCCCC2)c1	-3.1	2	-1	x	-2	-0.2	2	0.4
N#CC(C(=O)c1ccccc1Cl)=C1SCCCS1	-1.1	-18	-1	7.9	-23	-0.3	14	-4.1
Cc1cc(C)n2nc(S(=O)(=O)NCCc3ccccc3)nc2n1	u	0	3	5.8	11	0.7	-1	4.5
Cc1ccc(NC(=O)N(C2=NCC(C)S2)c2ccccc2)cc1 (configuration not stated)	0.1	-8	-4	3.3	-15	-0.2	0	-5.1
CCc1c(C#N)c(N)nc(SCC(=O)OCc2ccccc2)c1C#N	3.0	-20	-6	-0.5	14	0.1	10	-4.9
Cc1ccc(Nc2nnc(SCC(=O)N(C)C3CCS(=O)(=O)C3)s2)cc1 (configuration not stated)	-1.6	5	-1	3.5	-5	0.2	3	8.4
CCOc1ccc(C(=O)CCC(=O)NC2=NCCS2)cc1	x	11	0	-1.6	-2	2.0	17	7.1
CCCn1c(=S)[nH]c2cc(C(=O)N3CCc4ccccc4C3)ccc2c1=O	-6.7	9	-4	2.2	-12	-0.7	-14	3.5
Nc1c(C(=O)Nc2ccccc2)sc2ncc([N+](=O)[O-])cc12	-3.9	-21	0	3.8	-12	-1.4	-17	5.0

Assay outcomes (PubChem BioAssay)
